Bioassay records deposited in PubChem by National Center for Advancing Translational Sciences (NCATS).
NIH3T3 tox: cytotoxic compounds in NIH 3T3 cells; actives 4.3% (n = 94,000); NIH 3T3 viability, CellTiter-Glo ATP luminescence, 48-72 h; AID 1345082; Potency, µM (titrated, usually from 96.7 µM), for inactives: top-dose activity change, negative = cytotoxicity, usual class: inhibitors; also: potency is read from the fitted curve at half-maximal effect; nearly all actives have a fitted effect of over 55% in size
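First NIH 3T3 cells are plated at 400 cells/well; next compound is pinned in; then plates incubate 48 or 72 hr at 37 °C; finally CellTiter-Glo is added and luminescence read after 10 min.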
FLuc inh: inhibitors of firefly (Photinus pyralis) luciferase | Potency, µM (top dose mostly 115 µM), for inactives: at the top dose activity change, negative = inhibition, hits mostly inhibitors | purified P. pyralis luciferase, luminescence, biochemical | P08659 | actives 2.5% (n = 76,000); also: potency is read from the fitted curve at half-maximal effect; nearly all actives have a fitted effect of over 65% in size
Target sequence (P08659 whole entry, looked up): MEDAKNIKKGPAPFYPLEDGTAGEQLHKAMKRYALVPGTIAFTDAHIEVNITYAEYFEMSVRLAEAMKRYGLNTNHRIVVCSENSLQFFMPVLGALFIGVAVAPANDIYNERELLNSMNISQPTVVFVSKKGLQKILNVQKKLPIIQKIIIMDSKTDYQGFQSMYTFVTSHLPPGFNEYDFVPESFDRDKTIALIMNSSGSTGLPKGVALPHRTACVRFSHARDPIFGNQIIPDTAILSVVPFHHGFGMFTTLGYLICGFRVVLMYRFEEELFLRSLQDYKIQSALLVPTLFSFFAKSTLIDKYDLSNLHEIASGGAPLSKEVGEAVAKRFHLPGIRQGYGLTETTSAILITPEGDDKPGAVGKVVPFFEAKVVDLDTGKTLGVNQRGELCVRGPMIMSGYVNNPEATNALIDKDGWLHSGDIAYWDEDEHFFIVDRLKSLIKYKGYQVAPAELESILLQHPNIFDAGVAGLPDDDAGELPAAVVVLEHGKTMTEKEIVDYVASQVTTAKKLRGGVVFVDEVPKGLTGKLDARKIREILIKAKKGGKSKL
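Luminescence read by CCD imaging after purified firefly luciferase (10nM final) was added to substrate buffer holding 10uM D-luciferin and 10uM ATP, pH 7.5, pre-dosed with compound.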
HEK cytotox: cytotoxic compounds in HEK 293 cells. HEK 293 viability, ATP luminescence (CellTiter-Glo), 48-72 h. Potency, µM (highest dose often 115 µM), for the others: at the top dose activity change, negative = cytotoxicity, most hits filed as inhibitors. actives 6.6% (n = 94,000). AID 1345083; also: potency is read from the fitted curve at half-maximal effect; nearly all actives have a fitted effect of over 60% in size
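Viability of HEK 293 cells, plated at 250 cells/well, was judged by cellular ATP after compound treatment for 48 or 72 hr. Luminescence was imaged 10 min after CellTiter-Glo addition at room temperature.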
SNCA expr inhib: SNCA gene expression inhibition; HEK-293 SNCA-luciferase knock-in, luminescence, 24 h; Potency, µM (top dose mostly 57.2 µM), for the others: at the top dose activity change, negative = inhibition, most hits filed as inhibitors; actives 0.17% (n = 140,000); AID 1671194;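 also: potency is read from the fitted curve at half-maximal effect; plate controls were DMSO cells for no effect and cell-free wells for full effect; nearly all actives have a fitted effect of over 45% in size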
IP6K1 inh: IP6K1 kinase inhibition. IP6K1 kinase, ADP-Glo luminescence, 2 h; active compounds read low. actives 0.81% (n = 140,000). AID 1645851. activity change, % (series mostly up to about 58 µM); in the data active = activity change below about -25%
Target sequence (Q92551 whole entry, looked up): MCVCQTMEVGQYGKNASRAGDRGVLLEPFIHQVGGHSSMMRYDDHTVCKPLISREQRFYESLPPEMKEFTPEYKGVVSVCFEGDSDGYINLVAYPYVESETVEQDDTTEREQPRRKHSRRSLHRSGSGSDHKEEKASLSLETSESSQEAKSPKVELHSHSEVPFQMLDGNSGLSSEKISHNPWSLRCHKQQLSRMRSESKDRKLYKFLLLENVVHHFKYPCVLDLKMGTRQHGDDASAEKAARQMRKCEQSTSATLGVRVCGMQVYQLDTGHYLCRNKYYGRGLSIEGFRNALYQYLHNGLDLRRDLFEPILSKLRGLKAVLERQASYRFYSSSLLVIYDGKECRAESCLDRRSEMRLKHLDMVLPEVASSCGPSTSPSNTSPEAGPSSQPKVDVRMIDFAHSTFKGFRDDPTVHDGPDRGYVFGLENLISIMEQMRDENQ
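ADP-Glo luminescence measures ADP made by human IP6K1 during a 2 h RT reaction with ATP/IP6 (mix at 1.3 mM/130 uM); top library doses 57.5 and 19.1 uM final.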
HEK293 viab: counter-screen for SNCA expression inhibitors: cell viability; HEK-293-SNCA-luc viability, GF-AFC fluorescence, 24 h; Potency, µM (series often up to 57.1 µM), for inactives: at the top dose activity change, negative = cytotoxicity, most hits filed as cytotoxic; actives 0.12% (n = 150,000); AID 1671193;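 also: potency is read from the fitted curve at half-maximal effect; 0% = DMSO-treated cells and -100% = medium-only wells without cells; nearly all actives have a fitted effect of over 30% in size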
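HEK-293-SNCA-luc cells (1500/well) plated 24 h, then exposed 24 h to a dilution series; GF-AFC added 30 min at 37C, fluorescence 405/540 nm; normalised to medium-only and DMSO wells, Hill fit.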
* hit, by the source's call; i = inactive; ? = inconclusive; . = not tested or not shown; [ ] = remark or other dose. Unless noted, calls follow the shape of the dose curve; as a rule, active = well fitted curve in the direction sought with a large enough effect; inconclusive = small, poorly fitted or top-dose-only effect, or another doubt; inactive = no such curve, though single readings can be large; an effect the other way counts as inactive or inconclusive. Unless noted, % is scaled to controls: 0 for no effect and ±100 for the full control effect.

SMILES	NIH3T3 tox	FLuc inh	HEK cytotox	SNCA expr inhib	IP6K1 inh	HEK293 viab
O=C(c1ccc(F)cc1F)N1CCC2(CC1)OCC(C(=O)N1CCCC1)N2C(=O)c1ccco1 (configuration not stated)	i	4%	i	-19%	-15	1%
CC(=O)N1CCN(CC[C@H]2CN(C(=O)c3ccc(C(F)(F)F)cc3)CC[C@H]2CC(=O)O)CC1	4%	3%	i	-7%	-6	4%
Cn1cc(-c2ccc3nnc(Sc4ccc5nn(C)cc5c4)n3n2)cn1	.	.	.	.	10	-5%
C=CCNC(=O)c1ccc2cncn2c1	-15%[174 µM]	-7%[230 µM]	-3%[230 µM]	0%[87.6 µM]	10	-4%[87.6 µM]
Cc1cc(OC2CN(Cc3cccc4ccccc34)C2)ccc1F	?	-9%[172 µM]	100µM*	-15%[87.6 µM]	0	1%[87.6 µM]
C#CCNC(=O)CC[C@@H]1CNC(=O)[C@@H]2C[C@H](NC(=O)c3cccc(F)c3)CN12	-8%[138 µM]	-5%[172 µM]	-7%[172 µM]	-6%[87.6 µM]	12	5%[87.6 µM]
O=C(c1cnc2c(c1)CCCC2)N1C[C@H](CO)C[C@H](CN2CCOCC2)C1	-3%	8%	i	2%	5	-1%
C=CCn1c(CN2CCC3(CC(=O)NC3=O)C2)nc2ccccc21 (configuration not stated)	?	1%	-7%	-10%	17	-7%
Cc1ccc(NC2CCCN(C(=O)c3ccc(F)c(F)c3)C2)cc1C (configuration not stated)	-11%	-1%	-15%	0%	3	-11%
O=C(Cc1ccc(Cl)cc1)N1CCC2(CC1)NC(=O)N(c1cccc(F)c1)N2	?	1%	?	18%	3	-12%
CC(C)(O)CCc1ccc(C(=O)N2CCN(c3ccncc3)CC2)cc1	-3%	-4%	-30%	21%	0	-11%
Cc1ccccc1-n1nc(CC(N)=O)nc1-c1ccc(Cn2cnnn2)cc1	-17%	-20%	-1%	-28%	-5	-6%
O=C(O)CCNc1c(-c2ccc(F)cc2)nc2cnccn12	0%	-11%	-6%	9%	6	27%
CN1CCN(c2cc(N3CCCC(CO)(CC4CC4)C3)nc(N)n2)CC1 (configuration not stated)	-15%	-5%	-8%	11%	6	-17%
CC(C)C(=O)N1CCC2(CC1)CN(c1ccccc1)C2=O	-15%	8%	-13%	6%	32	11%
COc1ccc(-c2nc3cc(C(=O)NCCCc4ccccc4)ccc3o2)cn1	-23%	.	-28%	-4%	23	2%
CCCS(=O)(=O)N1CCC2(CC1)CCC(O)(CN1CCCC1)CC2	-38%	.	?	21%	8	-8%
COCC(=O)N1CC[C@@H](CC(=O)O)[C@@H](CCN2CCN(c3ccccc3OC)CC2)C1	1%[174 µM]	6%[172 µM]	-1%[172 µM]	-28%[87.6 µM]	-1	3%[87.6 µM]
O=C(N[C@H]1C[C@H]2C(=O)NC[C@@H](CCC(=O)N3CCc4ccccc43)N2C1)c1ccc(F)c(Cl)c1	?	-8%	-21%	7%	-2	8%
COCC(=O)N1CC[C@@H](CC(=O)O)[C@@H](CCN2CCN(c3ccccc3)CC2)C1	-3%[138 µM]	1%[172 µM]	5%[172 µM]	2%[87.6 µM]	-13	4%[87.6 µM]
CCCN(C)C(=O)c1onc(-c2ccc(F)cc2)c1[C@H](C)O	?	4%[172 µM]	?	8%[87.6 µM]	7	4%[87.6 µM]
O=C(c1ccccc1N1CCOCC1)N1CCCn2nc(CO)cc2C1	4%	-4%	i	-7%	19	7%
Cc1ncc2c(c1CNC(=O)c1ccc3c(c1)OCO3)CCN(C(=O)c1coc3c1C(=O)CCC3)C2	i	-12%	-2%	-1%	26	-1%
Cc1cc(Cl)ccc1NC1CN(C(=O)OC(C)(C)C)C1	?	.	?	-8%[87.6 µM]	-17	4%[87.6 µM]
O=C(CCNc1cnc2cnccn12)NC1CCN(Cc2ccccc2)CC1	-24%	8%	?	1%	21	6%

Complete entries, looked up by structure. Screens in order: NIH3T3 tox, FLuc inh, HEK cytotox, SNCA expr inhib, IP6K1 inh, HEK293 viab
COc1ccc(-c2nc3cc(C(=O)NCCCc4ccccc4)ccc3o2)cn1 as listed: -23%, ., -28%, -4%, 23, 2%
CC(C)(O)CCc1ccc(C(=O)N2CCN(c3ccncc3)CC2)cc1 as listed: -3%, -4%, -30%, 21%, 0, -11%
Cc1cc(Cl)ccc1NC1CN(C(=O)OC(C)(C)C)C1 as listed: ?, ., ?, -8%[87.6 µM], -17, 4%[87.6 µM]
O=C(c1cnc2c(c1)CCCC2)N1C[C@H](CO)C[C@H](CN2CCOCC2)C1 as listed: -3%, 8%, i, 2%, 5, -1%
COCC(=O)N1CC[C@@H](CC(=O)O)[C@@H](CCN2CCN(c3ccccc3OC)CC2)C1 as listed: 1%[174 µM], 6%[172 µM], -1%[172 µM], -28%[87.6 µM], -1, 3%[87.6 µM]

(further entries)
SMILES	NIH3T3 tox	FLuc inh	HEK cytotox	SNCA expr inhib	IP6K1 inh	HEK293 viab
COc1ccc(OC2CN(Cc3ccc(F)cc3)C2)cc1	-3%[138 µM]	.	-2%[172 µM]	40%[activator][87.6 µM]	-3	11%[87.6 µM]
COc1ccc(-c2ccnc(N[C@H]3CO[C@H]4[C@@H]3OC[C@@H]4NC(=O)CCC(=O)O)n2)cc1	-1%[174 µM]	1%[172 µM]	4%[172 µM]	1%[87.6 µM]	-8	4%[87.6 µM]
CCN(CC)C(=O)c1cc2c(s1)CCC(C(=O)N1CCN(c3ccccn3)CC1)C2 (configuration not stated)	?	6%	?	?	3	-11%
FC1(F)CN[C@H](c2nc(-c3cccnc3)no2)C1	i	-11%	3%	7%	10	-23%
Cc1cc(C(=O)N2CCC(c3nnc(Cn4ccnc4)n3C)CC2)cs1	2%	6%	-6%	-2%	5	0%
COc1ccc(-c2ccc3nc(-c4cc(C)ccc4F)oc3c2)c(OC)c1OC	-7%	-18%	3%	31%[activator]	-1	10%
O=C(C1CC2(CCNCC2)CN1)N(CCc1ccccc1)Cc1cccnc1 (configuration not stated)	1%	-6%	1%	4%	4	0%
Cc1ccc(CCC(=O)N2C[C@@H](C)[C@@](C)(O)C2)cc1C	-10%	-1%	-19%	11%	16	0%
Cn1cc(C(NC(=O)c2ccc3c(c2)ncn3CCO)C2CC(O)C2)cn1 (configuration not stated)	-1%	13%	-23%	22%	-3	-5%
COC[C@H]1CCCN1C(=O)[C@@H](C)C1CC[C@@]2(C)CC[C@H](NC(=O)c3cncnc3)[C@@H](C)[C@@H]2[C@H]1O (some centres not stated)	-10%	-1%	-25%	3%	14	2%
CN(C)C(=O)CN1CCCC(CO)(CC2CC2)C1 (configuration not stated)	i	1%	i	?	3	-16%
Cn1cncc1CN1CCC2(CCN(C3CCOCC3)CC2)C(CO)C1 (configuration not stated)	-5%	12%	0%	?	-2	1%
COc1cccc(-c2cc(C(=O)O)cc(S(=O)(=O)NC(C)C)c2)c1	i	-4%	1%	14%	1	5%
Cn1ccnc1-c1nc2cc(S(=O)(=O)N3CCCC3)ccc2n1C	-25%	2%	-10%	43%[activator]	2	5%
Cc1cccc(OCCc2noc(C3CCN(C(=O)NC4CCCCC4)C3)n2)c1 (configuration not stated)	-10%	7%	?	-1%	0	8%[12.5 µM]
Cc1ccccc1C(=O)N1CCC2(CC1)OCC(C(=O)N1CCCC1)N2C(=O)c1cccc(F)c1 (configuration not stated)	3%	-7%	?	-9%	-2	9%
Cc1nnc(-c2cc(C(=O)NCCc3ccccc3)ccn2)n1Cc1cccnc1	-25%[138 µM]	5%[172 µM]	?	81%[activator][87.6 µM]	0	18%[87.6 µM]
CN1CCCCCCN(Cc2ccc3[nH]ccc3c2)[C@H]2CCC[C@H]2C1=O	-5%	2%	?	-8%	1	-7%
CN1CCN(CC2(c3nc4c([nH]3)CC(C)(C)CNC4=O)CC2)CC1	i	0%	-2%	16%	-4	6%
CCc1cc(=O)n(CC(=O)Nc2cc(C)ccc2OC)c(-c2ccccc2)n1	-22%	-1%	?	6%	1	4%
O=C(O)c1ccc(-c2ncccn2)cc1	0%[174 µM]	.	-1%[230 µM]	-4%[87.6 µM]	7	4%[87.6 µM]
CC1(C(=O)N2CCc3ccccc3C2)CCCCC(=O)N1 (configuration not stated)	i	-4%	-6%	18%	24	3%
Cc1ccc(-c2nc(C(=O)N(C)Cc3ccccc3)no2)cc1	?	10µM*	?	167%[activator]	-3	?
Cc1ccsc1C(=O)NCC1Cn2cccc2C(=O)N1Cc1ccccc1 (configuration not stated)	-15%	-2%	?	2%	-8	-4%
O=C(Cc1ccc(F)cc1)N1CCC2(CC1)NC(=O)N(c1ccc(F)cc1)N2	?	-6%	?	-11%	-14	0%

Copied from the results shown, 2 compounds:
SMILES	NIH3T3 tox	FLuc inh	HEK cytotox	SNCA expr inhib	IP6K1 inh	HEK293 viab
Cc1ccsc1C(=O)NCC1Cn2cccc2C(=O)N1Cc1ccccc1 (configuration not stated)	-15%	-2%	?	2%	-8	-4%
O=C(Cc1ccc(F)cc1)N1CCC2(CC1)NC(=O)N(c1ccc(F)cc1)N2	?	-6%	?	-11%	-14	0%

Other structures.
SMILES	NIH3T3 tox	FLuc inh	HEK cytotox	SNCA expr inhib	IP6K1 inh	HEK293 viab
Cc1c(C(C)NC(=O)CN2CCOC2=O)cnn1-c1ccc(F)cc1F (configuration not stated)	-3%	1%	1%	13%	16	-24%
O=C(Nc1cccc2ccccc12)N[C@H]1CO[C@H]2[C@@H]1OC[C@@H]2Nc1nccc(-c2cccs2)n1	?	-1%	?	4%	-5	-11%
COc1ccc(-c2noc(-c3nc(C)no3)n2)c(OC)c1	2%	?	5%	56%[activator]	-16	-12%
CCCS(=O)(=O)N1CCCC(Cc2noc(-c3cccnc3)n2)C1 (configuration not stated)	-21%	-11%	?	-20%	-2	-5%
CN1[C@@H](CCC(=O)NCc2cccs2)CNC(=O)[C@@H]2[C@H]1CCN2Cc1ccc(C(F)(F)F)cc1	-8%	1%	-12%	?	1	-1%
Cc1sc2ccn(C)c(=O)c2c1C(=O)NCc1cccc(Br)c1	-5%	-4%	?	6%	6	6%
COCCS(=O)(=O)c1ncc(CN(C)Cc2ccsc2)n1Cc1ccccc1	?	0%	?	19%	0	5%
COc1ccccc1CC(=O)N1CCC2(CC1)NC(=O)N(c1ccccc1)N2	?	-3%	?	2%	-2	-1%
Cc1nc(CCNC(=O)c2cnc(-c3cccnc3)nc2)cc(=O)[nH]1	-12%	16%	i	-12%	-2	5%
CC(=O)Nc1ccc(-c2c(-c3cccc(C)c3)nn(-c3ccc(F)cc3)c2OC(C)=O)cc1	-28%	0%	?	-29%	-4	9%
Cc1cc(C(=O)NCC2Cn3cccc3C(=O)N2Cc2ccccc2)n(C)n1 (configuration not stated)	-14%	6%	-17%	?	16	-11%
O=C(NC1CCCCC1)[C@@H]1C[C@@H](O)CN1C1CCN(C(=O)c2ccccn2)CC1	5%	-7%	1%	7%	12	0%

An excerpt, so the mix of outcomes need not match the whole.
